Polio RdRp inh: poliovirus RdRp elongation inhibitors, primary screen, biochemical, fluorescence polarization, total intensity. Genome polyprotein (Poliovirus type 1 (strain Mahoney)), P03300. poliovirus polymerase elongation; active compounds read low. % elongation, % (compound at 16.7 µg/mL). 0.66% of 150,000 active. AID 588519, 2011; in the data active means % elongation below about 90%; further: some results filed as inactive read as strong as hits
Target sequence (P03300 1749-2209 limits assumed): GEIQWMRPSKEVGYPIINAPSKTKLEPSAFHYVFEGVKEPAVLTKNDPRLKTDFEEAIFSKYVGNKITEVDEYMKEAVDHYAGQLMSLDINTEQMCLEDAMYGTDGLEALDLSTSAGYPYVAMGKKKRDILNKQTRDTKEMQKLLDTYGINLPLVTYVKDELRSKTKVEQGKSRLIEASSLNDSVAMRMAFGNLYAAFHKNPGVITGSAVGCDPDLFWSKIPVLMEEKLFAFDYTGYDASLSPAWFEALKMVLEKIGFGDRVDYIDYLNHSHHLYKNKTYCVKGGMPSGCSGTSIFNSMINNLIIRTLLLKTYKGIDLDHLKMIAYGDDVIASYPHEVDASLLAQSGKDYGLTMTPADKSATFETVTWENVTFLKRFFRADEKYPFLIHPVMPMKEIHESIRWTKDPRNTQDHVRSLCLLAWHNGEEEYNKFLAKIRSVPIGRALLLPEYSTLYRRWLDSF
Polio RdRp inh intensity: recorded beside Polio RdRp inh, whose call it bears; % elongation; measured here: total intensity read-out; formula for this scale not given here;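 total fluorescence in place of polarization; lower means less elongation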
* hit, by the source's call. Some of the compounds tested. The share of hits here may be higher or lower than overall.

#	SMILES	Polio RdRp inh	Polio RdRp inh intensity
1	Cc1ccc(-c2nn(CCC(=O)Nc3ccc(Cl)c(Cl)c3)c(=O)c3ccccc23)cc1	98	102
2	Cn1c(=O)c2ccccc2n2c(CCC(=O)N3CCN(c4cccc(Cl)c4)CC3)nnc12	105	110
3	Cc1cccc(NC(=O)Nc2ccc(Br)cc2)n1	102	100
4	CCOC(=O)Cn1c(=O)n(CC2CCCO2)c2nc(-c3ccc(OC)cc3OC)nc(C(N)=O)c21 (configuration not stated)	107	108
5	COc1ccc2c(c1)c1c(c(=O)n(Cc3ccccc3)c(=O)n1Cc1cc(C)ccc1C)n2C	112	118
6	CCCOc1ccc(C(=O)N(Cc2ccc(Cl)cc2)Cc2ccco2)cc1	101	106
7	Cc1ccc(-n2ncc3c(N4CCCCC4)ncnc32)cc1Cl	101	104
8	Cc1ccccc1CN1C(=O)C(O)(c2c[nH]c3ccccc23)c2cc(Cl)ccc21 (configuration not stated)	109	109
9	COc1ccc(CNC(=O)CCNS(=O)(=O)c2cccc3nsnc23)cc1	105	109
10	CN(C)S(=O)(=O)c1ccc(C(=O)Nc2ccc(-n3nncc3-c3ccccc3)cc2)cc1	106	98
11	CCOc1ccc(-n2ccnc2SCC(=O)Nc2nc3ccc(C)cc3s2)cc1	108	104
12	O=C(OCC1CCCO1)c1ccc2c(c1)N(Cc1ccccc1Cl)C(=O)c1ccccc1S2(=O)=O (configuration not stated)	101	96
13	Cc1cc(C)cc(N2C(=O)CSC23C(=O)N(CC(=O)NCCc2ccccc2)c2ccccc23)c1 (configuration not stated)	104	110
14	Cc1ccc(C)c(NC(=O)CSc2nnc(NC(=O)Nc3ccccc3)s2)c1	112	107
15	CN(C)c1ccc(NC(=O)C2(c3cccs3)CCOCC2)cc1	104	103
16	Cc1ccc(CSCC(=O)N2CCN(c3ccccc3F)CC2)cc1	106	105
17	O=C(O)c1c(CNCc2cccc(F)c2)c2ccccc2n1Cc1ccccc1	104	105
18	CCn1c(CN2CCN(c3cccc(Cl)c3)CC2)nc2c1c(=O)[nH]c(=O)n2C	104	104
19	CS(=O)(=O)CC[C@@H](C(=O)NCCc1ccccc1)N1Cc2ccccc2C1=O	105	108
20	CCOC(=O)CNC(=O)N1CCN(c2nnc(C)c3c(C)n(-c4ccc(Cl)cc4)nc23)CC1	107	114
21	CCOCCCNC(=O)N1CCN(S(=O)(=O)c2ccc3c(ccn3C)c2)CC1	109	95
22	CSc1cccc(NC(=O)Cn2nc(C)c3sc4ccccc4c3c2=O)c1	104	107
23	Cc1ccc2nc(-c3ccc(Cl)c(NC(=O)c4cccc([N+](=O)[O-])c4C)c3)oc2c1	107	109
24	CC(=O)N1CCCc2cc(S(=O)(=O)N3CCCC(C(=O)NCc4ccccc4Cl)C3)ccc21 (configuration not stated)	109	115
25	Cc1cc(C)c(NC(=O)CSc2nncn3c2cc2oc(C)cc23)c(C)c1	108	112
26	CSc1ncc(Cl)c(C(=O)N(Cc2ccc(C(C)C)cc2)C2CCS(=O)(=O)C2)n1 (configuration not stated)	118	113
27	COc1ccc(NCc2cc3cc4c(cc3n(CC(=O)Nc3ccc(F)cc3)c2=O)OCCO4)cc1	108	111
28	CC(=O)N1CCc2cc(CNC(=O)c3ccccc3Br)ccc21	111	108
29	CCc1cccc(C)c1NC(=O)CCCN1C(=O)C(c2ccccc2)Oc2cccnc21 (configuration not stated)	111	109
30	COc1ccc(CNC(=O)c2cnc3sc4cc(OC)ccc4n3c2=O)cc1	111	111
31	CCOc1ccc(-c2cc(C(=O)NCCc3ccc(OC)c(OC)c3)[nH]n2)cc1	107	110
32	CC(C)c1cnc2c(c1SCC(=O)Nc1cccc(F)c1)c(=O)n(C)c(=O)n2C	110	106
33	Cc1ccc2nc(NC(=O)CSc3cc(C)[nH]c(=O)n3)sc2c1	115	108
34	Cc1noc(C)c1S(=O)(=O)N(CC(=O)NCc1ccccc1Cl)c1ccc(C(C)C)cc1	109	112
35	Cc1cccc(NC(=O)c2cc(CN3CCOCC3)on2)c1C	106	97
36	Cc1ccc2c(c1)N(S(=O)(=O)c1cc(-c3onc(C)c3C)ccc1C)CCO2	114	112

Brought forward from above: 2 compounds, followed by the next part.
#	SMILES	Polio RdRp inh	Polio RdRp inh intensity
35	Cc1cccc(NC(=O)c2cc(CN3CCOCC3)on2)c1C	106	97
36	Cc1ccc2c(c1)N(S(=O)(=O)c1cc(-c3onc(C)c3C)ccc1C)CCO2	114	112
37	COc1cc(NC(=O)CN2C(=O)C(c3ccc(C)cc3)=NC23CCCCC3)cc(OC)c1	110	110
38	CC(C)CC(=O)Nc1ccc(S(=O)(=O)Nc2cc3c(cc2N2CCOCC2)n(C)c(=O)c(=O)n3C)cc1	106	101
39	CC(C)CC(=O)NCC(c1ccc2c(c1)OCO2)N1CCN(c2ccccc2)CC1 (configuration not stated)	110	108
40	Fc1ccc(-c2noc3ncnc(NCCCN4CCN(c5ccccc5)CC4)c23)cc1	108	108
41	O=C(CSc1nc2nccnc2c(=O)n1CCc1c[nH]c2ccccc12)Nc1ccccc1	103	98
42	O=C(Nc1ccc2nc3n(c(=O)c2c1)CCCCC3)c1cccc(C(F)(F)F)c1	109	108
43	CCn1cc2nc(SCc3cccc(C)c3)n(CCc3ccccc3)c(=O)c2n1	114	114
44	CC(=O)c1ccc(N2CCN(c3ccc4cc(S(=O)(=O)N5CCCCC5)ccc4n3)CC2)cc1	105	105
45	O=C(NCCS(=O)(=O)N1CCN(c2ccccc2F)CC1)c1cc(=O)c2ccccc2o1	101	107
46	COc1ccc(N2CCN(C(=O)CN3CCSc4ccccc43)CC2)cc1	106	99
47	COc1ccc(C(=O)N2CCC(c3nc(-c4ccc(S(=O)(=O)N5CCCC5)cc4)no3)CC2)cc1	113	112
48	CN(C)CCNC(=O)Cn1ccc2cc(S(=O)(=O)N3CCCCCC3)ccc21	102	103
49	Cc1cccc(COc2ccc(-c3cc(C(F)(F)F)n4nc(C)cc4n3)cc2)c1	107	106
50	Cc1cccc(NC(=O)CSc2cn(CC(=O)N3CCC(C)CC3)c3ccccc23)c1C	122	119
51	CCOC(=O)c1ccc(Nc2nc(C)cc(C)n2)cc1	104	107
52	Cc1ccc(CCNC(=O)CN(c2ccc(C)cc2)S(=O)(=O)N(C)C)cc1	107	112
53	CCCCOC(=O)c1c(C)oc2ccc(NS(=O)(=O)c3ccc(F)cc3C)cc12	107	107
54	Cc1ccc(NC(=O)Cn2cnc3sc(C)c(S(=O)(=O)N4CCN(c5ncccn5)CC4)c3c2=O)cc1F	107	112
55	CC(=O)c1ccc(N2CCN(c3nc4c(S(=O)(=O)c5ccccc5)nnn4c4ccc(Cl)cc34)CC2)cc1	104	109
56	CCC(=O)Nc1sc2c(c1C(=O)Nc1cccc(C)c1)CCCC2	106	113
57	COc1ccc(N2CCN(C(=O)CCn3c(=O)[nH]c4cc(OC)c(OC)cc4c3=O)CC2)cc1	105	111
58	CCN1c2ccccc2-c2nc(SCC(=O)NCc3ccc(Cl)cc3)ncc2S1(=O)=O	113	118
59	CCCCOc1cccc(C(=O)N(Cc2sccc2C)C2CCS(=O)(=O)C2)c1 (configuration not stated)	111	111
60	Cc1ccccc1CSc1nc2cccnc2n1Cc1ccc(C(=O)NCCc2cccs2)cc1	114	112
61	Cn1c(CN2CCCCC2)nc2cc(NC(=O)c3ccc(Cl)cc3)ccc21	101	96
62	COc1ccc(Cl)cc1NC(=O)N1CCC(CN2CCc3ccccc3C2)CC1	107	95
63	Cc1ccc(N2CCN(C(=O)c3nn(C)c4c3CS(=O)(=O)c3ccccc3-4)CC2)c(C)c1	103	105
64	COc1ccc(Cn2c(C(=O)O)c(CNCc3ccco3)c3ccc(C)cc32)cc1	112	112
65	COCCn1c(C)cc(O)c(C(c2ccc(F)cc2)N2CCC(C)CC2)c1=O (configuration not stated)	112	118
66	C#CC(C)(C)NS(=O)(=O)c1cc(-c2nnc(Nc3ccc(C)cc3)c3ccccc23)ccc1C	106	109
67	COc1ccc(Nc2oc(-c3ccc(COc4cccc(C)c4)o3)nc2C#N)cc1	105	97
68	Cc1ccc(NC(=O)c2c(C)oc3ccc(O)c(CN4CCOCC4)c23)c(C)c1	107	110
69	CCc1ccccc1NC(=O)c1nnn(-c2ccc(F)cc2)c1C	108	111
70	Cc1cccc(NC(=O)CSc2nc(C)c(Cc3ccccc3)c(=O)[nH]2)c1	102	108
71	Cc1cccc(CN2CC=C(c3noc(CCC(=O)Nc4ccc(C)c(F)c4)n3)CC2)c1	108	111
72	CCc1ccc(S(=O)(=O)c2cn(CC(=O)Nc3cccc(C)c3)c3ccc(Cl)cc3c2=O)cc1	113	114
73	CC1=C(c2ccc(F)cc2)S(=O)(=O)N=C1N1CCC(C(=O)NCCc2ccccc2C)CC1	111	111
74	CCOc1cc(C2c3c(oc4ccccc4c3=O)C(=O)N2Cc2ccc(OC)cc2)ccc1O (configuration not stated)	108	104
75	CN1c2cc(Cl)ccc2-c2nc(SCC(=O)Nc3ccc(F)cc3F)ncc2S1(=O)=O	105	108
76	COc1cc(NC(=O)Nc2c[nH]c(=O)[nH]c2=O)cc(OC)c1OC	106	110
77	CCc1nc2nc(C)c(NS(=O)(=O)c3ccc(C)cc3)c(=O)n2[nH]1	103	103
78	Cc1ccccc1NC(=O)Cn1c(=O)n(CCCC(=O)NCc2ccc3c(c2)OCO3)c(=O)c2ccccc21	109	113
79	Cc1ccc(Cl)cc1-n1ncc2c(Nc3ccc4c(c3)OCCO4)ncnc21	107	110
80	CCc1ccccc1N1C(=O)N(Cc2cc(=O)n3ccccc3n2)c2ccccc2S1(=O)=O	110	111
81	Cc1ccc(NC(=O)Cn2nnc3sc4c(c3c2=O)CCC(C)C4)cc1 (configuration not stated)	100	104
82	Cc1cccc(OCC(=O)Nc2nonc2-c2ccc(Br)cc2)c1C	100	101
83	COc1cccc(C(c2sc3nc(-c4ccco4)nn3c2O)N2CCOCC2)c1 (configuration not stated)	111	114
84	CCc1ccc(NC(=O)c2ccc(F)c(S(=O)(=O)NCCc3ccc(OC)c(OC)c3)c2)cc1	116	112
85	Cn1nc(C(=O)NCc2cccc(Cl)c2)c2c1-c1ccccc1S(=O)(=O)C2	113	114
86	CCOc1ccc(N(CC)C(=O)C2CCN(S(=O)(=O)c3cccc4nonc34)CC2)cc1	108	111
87	Cc1nc(N2CCCC2)ncc1C(=O)Nc1ccc(F)cc1F	102	98
88	Cc1ccc(NC(=O)CSc2nnc(-c3cc4occc4n3C)n2-c2ccccc2C)c(Cl)c1	120	114
89	CCCNC(=O)Nc1cc(C(=O)NCc2cccc(OCC)c2)ccc1N1CCCC1	109	111
90	Cc1nc(N2CCOCC2)c2c(C(=O)N3CCN(c4cccc(C(F)(F)F)c4)CC3)c(C)oc2n1	108	114
91	Cc1ccccc1C(=O)N1CCC(c2nc(-c3ccc(S(=O)(=O)N4CCCC4)cc3)no2)CC1	103	95
92	Cn1c(SCc2ccc(C(F)(F)F)cc2)nc2c([nH]c3ccccc32)c1=O	110	112
93	COc1ccc(-c2cn3c(n2)sc2cc(C(=O)Nc4cc(OC)cc(OC)c4)ccc23)cc1	105	96
94	O=C(CSc1nc2nccnc2c(=O)n1CCc1c[nH]c2ccccc12)Nc1ccccc1F	110	105
95	CC(C)CNC(=O)C1=CC(c2ccc3c(c2)OCO3)=NS(=O)(=O)N1C	113	118
96	COCCNC(=O)CCCn1c(SCC(=O)Nc2ccc(F)cc2)nc2c(sc3ccccc32)c1=O	102	105

Remaining list, next part:
#	SMILES	Polio RdRp inh	Polio RdRp inh intensity
97	Cc1cc(NC(=O)C(C)(C)C)cc(-c2nc3ncccc3o2)c1O	106	107
98	COc1cc(/C=C/c2nc(C#N)c(N3CCN(C)CC3)o2)cc(OC)c1OC	107	110
99	O=C(Cn1c(=O)ccc2cc(S(=O)(=O)N3CCCC3)ccc21)Nc1ccccc1	102	108
100	Cc1oc2ncnc(N3CCCCC3)c2c1C(=O)N1CCN(c2cccc(Cl)c2)CC1	111	110
101	CCOc1ccc(NC(=O)CCS(=O)(=O)c2ccc(Br)s2)cc1	106	111
102	CN(C)c1ccc(NC(=O)Cn2cc(S(=O)(=O)Cc3ccccc3Cl)c3ccccc32)cc1	102	102
103	O=C(Nc1nnc(SCc2cc(=O)n3cc(Cl)ccc3n2)s1)c1cccc(F)c1	108	116
104	CCOc1ccc(C(=O)NCC(c2ccc(Cl)cc2)N2CCCCC2)cc1 (configuration not stated)	106	103

Structural class: those above with two or more sulfur atoms
#	SMILES	Polio RdRp inh	Polio RdRp inh intensity
9	COc1ccc(CNC(=O)CCNS(=O)(=O)c2cccc3nsnc23)cc1	105	109
11	CCOc1ccc(-n2ccnc2SCC(=O)Nc2nc3ccc(C)cc3s2)cc1	108	104
14	Cc1ccc(C)c(NC(=O)CSc2nnc(NC(=O)Nc3ccccc3)s2)c1	112	107
22	CSc1cccc(NC(=O)Cn2nc(C)c3sc4ccccc4c3c2=O)c1	104	107
26	CSc1ncc(Cl)c(C(=O)N(Cc2ccc(C(C)C)cc2)C2CCS(=O)(=O)C2)n1 (configuration not stated)	118	113
33	Cc1ccc2nc(NC(=O)CSc3cc(C)[nH]c(=O)n3)sc2c1	115	108
54	Cc1ccc(NC(=O)Cn2cnc3sc(C)c(S(=O)(=O)N4CCN(c5ncccn5)CC4)c3c2=O)cc1F	107	112
58	CCN1c2ccccc2-c2nc(SCC(=O)NCc3ccc(Cl)cc3)ncc2S1(=O)=O	113	118
59	CCCCOc1cccc(C(=O)N(Cc2sccc2C)C2CCS(=O)(=O)C2)c1 (configuration not stated)	111	111
60	Cc1ccccc1CSc1nc2cccnc2n1Cc1ccc(C(=O)NCCc2cccs2)cc1	114	112
75	CN1c2cc(Cl)ccc2-c2nc(SCC(=O)Nc3ccc(F)cc3F)ncc2S1(=O)=O	105	108
96	COCCNC(=O)CCCn1c(SCC(=O)Nc2ccc(F)cc2)nc2c(sc3ccccc32)c1=O	102	105
101	CCOc1ccc(NC(=O)CCS(=O)(=O)c2ccc(Br)s2)cc1	106	111
103	O=C(Nc1nnc(SCc2cc(=O)n3cc(Cl)ccc3n2)s1)c1cccc(F)c1	108	116
